# LANA-H2B inh: blocks KSHV LANA binding to histone H2A/H2B | AID 2629 | actives 0.6% (n = 320,000) | inhibition, % (test concentration not listed) | cell-free LANA-H2A/H2B peptide, fluorescence polarization; in the data active means inhibition mostly above about 10%, no sharp cut-off; inactive means mostly below about 6.7%;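 further: stock transfer was 7.5 nL into about 10 µL; 0% = median of vehicle wells and 100% = median of positive control wells; one replicate is shown; the record names a cut of 25% in any replicate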
# Beta2AR agonist: activates human beta-2 adrenergic receptor causing internalization; actives 0.43% (n = 340,000); Am2.2-beta2AR cells, FAP receptor internalization, flow cytometry; reference of the scale not given here; response, % (concentration not given with the values); AID 504454;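 active means response above a set limit, near 3 SD of response in nonfluorescent compounds, cut at about 42% in these data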;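 further: stock transfer was 100 nL into about 11 µL; a reference agonist was the positive control; negative values mostly stem from fluorescent compounds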
# ALR H2O2 inh: human ALR oxidase inhibition via reduced H2O2 | P55789 | inhibition, % (no concentration beside the values) | actives 3.8% (n = 290,000) | AID 485317 | purified ALR, DTT oxidation, H2O2 HRP-luminol luminescence;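 active means mean and each replicate at 75% or more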;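 further: stock transfer was 7.5 nL into about 7.5 µL; 0% = neutral wells and 100% = wells with inactivated enzyme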
# Target sequence (P55789 whole entry, looked up): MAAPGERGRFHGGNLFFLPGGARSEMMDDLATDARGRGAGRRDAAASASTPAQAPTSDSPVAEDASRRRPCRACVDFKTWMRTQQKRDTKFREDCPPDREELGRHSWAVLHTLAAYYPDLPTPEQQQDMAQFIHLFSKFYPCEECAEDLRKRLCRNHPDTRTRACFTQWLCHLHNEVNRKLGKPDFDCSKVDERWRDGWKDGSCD
# Ecoli growth: blocks Escherichia coli growth; OD600 absorbance (test concentration not listed); OD600, 23 h; hits give low values; actives 0.21% (n = 330,000); AID 1053175;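 active means OD600 absorbance below the run mean of sample wells minus 3.6 SD, in any replicate, cut at about 0.56 in these data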;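 further: stock transfer was 300 nL into about 60 µL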
# FGF22 binding: binders of recombinant human FGF22 by thermal shift | Q9HCT0 | SYPRO orange fluorescence; percent of sucrose octasulfate shift, DMSO zero | calls only at 9.99 µM | actives 1.5% (n = 340,000) | AID 651658;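 active means melting point raised past a set limit in the mean and every replicate; three in four hits are not shown here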
# HNF4A DNA FP: change in binding of human HNF4 alpha to DNA; activity change, % at 10 µM; P41235; actives 0.3% (n = 360,000); HNF4a-FITC DNA binding, fluorescence polarization, 1 h; in the data active means activity change above about 30%, passing the limit was not always enough;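 further: controls were the assay level and a saturating level of protein; the project sought stronger binding though the title names inhibitors; some compounds called inactive have numbers as strong as hits; positive values seem to mean higher polarization but the record does not say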
# Target sequence (P41235 whole entry, looked up): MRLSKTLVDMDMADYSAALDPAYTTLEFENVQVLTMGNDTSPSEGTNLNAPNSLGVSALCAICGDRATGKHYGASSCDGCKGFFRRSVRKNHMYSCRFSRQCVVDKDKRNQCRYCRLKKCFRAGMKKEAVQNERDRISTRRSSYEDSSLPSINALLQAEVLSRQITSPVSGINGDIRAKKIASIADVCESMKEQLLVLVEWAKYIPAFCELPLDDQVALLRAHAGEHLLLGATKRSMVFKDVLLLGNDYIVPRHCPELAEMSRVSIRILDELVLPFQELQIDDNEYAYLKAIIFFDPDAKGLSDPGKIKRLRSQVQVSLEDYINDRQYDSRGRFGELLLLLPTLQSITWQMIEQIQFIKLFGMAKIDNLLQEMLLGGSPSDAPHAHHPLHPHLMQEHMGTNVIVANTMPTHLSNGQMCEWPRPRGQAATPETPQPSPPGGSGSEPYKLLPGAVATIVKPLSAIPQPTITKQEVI
# UCH37 inh: blocks the human deubiquitinase UCH37; actives 0.33% (n = 330,000); Q9Y5K5; purified proteasome/UCH37, Ub-AMC cleavage fluorescence; inhibition, % (no concentration beside the values);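 active means mean of two replicates above 20%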;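 further: 0% = compound-free wells with enzyme and 100% = wells lacking proteasome; stock transfer was 100 nL into about 20 µL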
# Target sequence (Q9Y5K5 whole entry, looked up): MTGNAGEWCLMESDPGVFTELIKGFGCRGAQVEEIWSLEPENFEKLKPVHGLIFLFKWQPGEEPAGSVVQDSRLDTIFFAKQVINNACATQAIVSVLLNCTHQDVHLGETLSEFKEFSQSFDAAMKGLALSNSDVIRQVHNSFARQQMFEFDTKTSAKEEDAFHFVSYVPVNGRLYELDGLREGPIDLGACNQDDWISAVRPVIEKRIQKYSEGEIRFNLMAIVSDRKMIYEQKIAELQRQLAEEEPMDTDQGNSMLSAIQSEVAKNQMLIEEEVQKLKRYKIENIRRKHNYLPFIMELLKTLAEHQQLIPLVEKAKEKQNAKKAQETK
#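 Material: Human UCH37 enzyme supplied as purified proteasome complex | Schedule: 30 min compound-proteasome preincubation then 25 min substrate reaction, room temperature | Detection: AMC fluorescence from Ub-AMC cleavage, excitation 355 nm, emission 460 nm | Benchmarks: Wells without proteasome as full block, compound-free enzyme plus substrate as uninhibited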
# * hit, by the source's call; i = inactive; . = not tested or not shown.
SMILES,LANA-H2B inh,Beta2AR agonist,ALR H2O2 inh,Ecoli growth,FGF22 binding,HNF4A DNA FP,UCH37 inh
CN1CCC(N2CC3CC(C2)c2cccc(=O)n2C3)CC1 (stereo not given),-1.0,16.5,0.1,0.724,.,0.6,0.4
CN1C(=O)/C(=C/c2cccn2-c2ccc3ccccc3c2)C(=O)NC1=S,1.0,46.6*,-13.1,0.839,.,-6.8,7.3
CCN(C(=O)COC(=O)C(O)(c1ccccc1)c1ccccc1)c1c(N)n(Cc2ccccc2)c(=O)[nH]c1=O,.,-6.5,.,0.661,i,2.2,-0.5
CCN(CC)CCN/N=C(\C)c1c(O)[nH]c(=O)[nH]c1=O,0.6,-5.1,-22.3,0.633,i,1.6,2.9
COc1ccc(N2C(=O)/C(=C/c3ccc(OC)c(OC)c3)C(=O)NC2=S)cc1,3.8,2.2,52.3,0.649,i,-32.4,1.2
O=S(=O)(c1ccccc1)N1CCCCC1c1cccnc1 (stereo not given),2.8,-0.3,-7.6,0.663,.,-2.6,1.8
O=c1nc(/C=C/c2ccc(Cl)cc2Cl)cc(C(F)(F)F)[nH]1,-1.9,9.5,6.3,0.676,i,-3.0,9.4
Oc1ccc(/C=N/NP(=S)(c2ccccc2)c2ccccc2)cc1O,3.5,14.5,98.8*,.,i,3.4,.
CCCCCCNC(=O)N[C@H](Cc1ccc(O)cc1)C(=O)NCCC[C@H]1CN2C(=NC[C@H]2CCC)N1CC1CCC1,-2.1,.,10.8,.,.,.,5.0
Cc1ccc(-n2c(O)c(C=N)c(=O)n(-c3ccc(C)cc3)c2=O)cc1,-3.9,-8.2,3.7,0.672,i,1.6,2.3
CC(=Nc1ccc2c(c1)CCC2)c1c(O)n(C2CCCCC2)c(=O)[nH]c1=O,11.4,-9.2,-1.4,0.66,.,5.1,0.2
O=C(N/N=C/c1c(O)n(C2CCCCC2)c(=S)[nH]c1=O)c1ccccc1O,1.7,-1.9,40.0,0.704,.,-0.9,-238.7
COC(=O)C1=C(c2cccc(OCc3ccccc3)c2)C[C@@H]2CC[C@H]1N2C(=O)NCc1ccc2[nH]ccc2c1,-2.2,1.6,-2.0,.,i,-0.6,1.9
C=C1C(C)C2C(Cc3ccccc3)NC(=O)C23C(OC(C)=O)C=CC(C)(O)CC(C)CC=CC3C1O (stereo not given),.,30.0,.,.,i,-0.8,.
O=C1CN(C(=O)COC(=O)Cc2ccccc2)c2ccccc2N1,-1.1,-0.4,-4.2,0.703,i,-1.7,-0.1
COc1ccc(C(=O)C2CCCN(Cc3ccc(C)s3)C2)cc1OC (stereo not given),-1.5,-0.2,-1.0,0.692,i,-0.6,0.7
Oc1ccc(Cl)c(Cl)c1Cl,-4.4,-0.8,8.2,0.521*,i,-5.5,3.0
O=c1[nH]c(=O)n(CCc2ccccc2)c(O)c1C=NC1CC1,-1.1,3.7,-14.3,0.679,i,4.4,2.7
Cc1cccc(OCC(=O)N2CCN(Cc3ccc([N+](=O)[O-])cc3)CC2)c1,4.4,3.4,-73.2,0.727,i,3.2,3.1
COc1cccc(NC(=O)CN2CC(c3ccccc3)CC2=O)c1 (stereo not given),-1.3,0.9,-10.6,0.75,i,5.3,3.6
COc1cccc(-n2c(-c3ccoc3)nc3ccccc3c2=O)c1,0.5,-10.1,.,0.683,.,3.9,4.8
O=C(Cn1ncc2c3ccccc3n(Cc3ccc(F)cc3)c2c1=O)N1CCC2(CC1)OCCO2,5.7,-0.8,-3.5,0.693,.,1.0,-2.7
CCC(=NCc1cc(OC)cc(OC)c1)c1c(O)[nH]c(=O)[nH]c1=O,4.8,-0.4,-4.9,0.621,i,-1.0,2.6
CN1CCN(c2ccc(NC(=O)Oc3ccccc3)cc2)CC1,6.2,2.1,80.3*,0.711,.,-1.2,1.9
COc1ccc(-c2nc(CSCC(=O)N3CCC4(CC3)OCCO4)c(C)o2)cc1OC,1.1,6.7,99.8*,0.727,.,2.5,0.4
COc1ccc(Cl)cc1C(=O)C1CCCN(CCO)C1 (stereo not given),0.1,-7.2,9.5,0.679,i,1.9,-18.0
Cn1c(=O)cc(SCC(=O)N2CCC3(CC2)OCCO3)c2ccccc21,0.2,-7.8,-7.8,0.682,.,2.0,-3.3
c1cnc2c(c1)ccc1ncccc12,-18.4,-6.2,11.2,0.686,i,-2.6,1.4
C(#CCN1CCOCC1)COCc1ccccc1,-0.3,1.6,0.2,0.709,.,-0.6,1.0
CCN(N=Nc1nonc1OC)c1nonc1OC,2.0,-1.9,-17.9,0.706,.,1.0,4.6

# Sorted by molar mass (low to high): some entries from above
SMILES,LANA-H2B inh,Beta2AR agonist,ALR H2O2 inh,Ecoli growth,FGF22 binding,HNF4A DNA FP,UCH37 inh
CCN(N=Nc1nonc1OC)c1nonc1OC,2.0,-1.9,-17.9,0.706,.,1.0,4.6
O=c1[nH]c(=O)n(CCc2ccccc2)c(O)c1C=NC1CC1,-1.1,3.7,-14.3,0.679,i,4.4,2.7
COc1cccc(-n2c(-c3ccoc3)nc3ccccc3c2=O)c1,0.5,-10.1,.,0.683,.,3.9,4.8
O=C1CN(C(=O)COC(=O)Cc2ccccc2)c2ccccc2N1,-1.1,-0.4,-4.2,0.703,i,-1.7,-0.1
Cc1ccc(-n2c(O)c(C=N)c(=O)n(-c3ccc(C)cc3)c2=O)cc1,-3.9,-8.2,3.7,0.672,i,1.6,2.3
CC(=Nc1ccc2c(c1)CCC2)c1c(O)n(C2CCCCC2)c(=O)[nH]c1=O,11.4,-9.2,-1.4,0.66,.,5.1,0.2
Cc1cccc(OCC(=O)N2CCN(Cc3ccc([N+](=O)[O-])cc3)CC2)c1,4.4,3.4,-73.2,0.727,i,3.2,3.1
Cn1c(=O)cc(SCC(=O)N2CCC3(CC2)OCCO3)c2ccccc21,0.2,-7.8,-7.8,0.682,.,2.0,-3.3
COc1ccc(N2C(=O)/C(=C/c3ccc(OC)c(OC)c3)C(=O)NC2=S)cc1,3.8,2.2,52.3,0.649,i,-32.4,1.2
O=C(Cn1ncc2c3ccccc3n(Cc3ccc(F)cc3)c2c1=O)N1CCC2(CC1)OCCO2,5.7,-0.8,-3.5,0.693,.,1.0,-2.7
C=C1C(C)C2C(Cc3ccccc3)NC(=O)C23C(OC(C)=O)C=CC(C)(O)CC(C)CC=CC3C1O (stereo not given),.,30.0,.,.,i,-0.8,.
COC(=O)C1=C(c2cccc(OCc3ccccc3)c2)C[C@@H]2CC[C@H]1N2C(=O)NCc1ccc2[nH]ccc2c1,-2.2,1.6,-2.0,.,i,-0.6,1.9
CCCCCCNC(=O)N[C@H](Cc1ccc(O)cc1)C(=O)NCCC[C@H]1CN2C(=NC[C@H]2CCC)N1CC1CCC1,-2.1,.,10.8,.,.,.,5.0

# Carrying on.
SMILES,LANA-H2B inh,Beta2AR agonist,ALR H2O2 inh,Ecoli growth,FGF22 binding,HNF4A DNA FP,UCH37 inh
COC(=O)C1=C(c2ccc(F)cc2F)C[C@@H]2CC[C@H]1N2C(=O)NCCNC(C)=O,-7.2,1.0,-0.7,.,.,4.2,24.6*
COc1ccc(CN2C(=O)NC(=O)/C(=C\c3ccc(OC)c(OC)c3OC)C2=O)cc1,0.2,2.1,20.0,0.66,i,0.8,0.7
COC(=O)Nc1ccc(N=C(N)N[N+](=O)[O-])cc1,8.2,7.7,-5.7,0.65,.,-2.6,2.6
Cc1nc2cc([N+](=O)[O-])ccc2c(=O)n1-c1ccccc1[N+](=O)[O-],-5.2,-0.4,-21.4,0.695,.,2.1,5.8
COC(=O)C1=C(N)OC(C)=C(C(C)=O)C12C(=O)N(C)c1ccccc12 (stereo not given),4.6,2.0,.,0.764,.,-1.2,0.8
CNC(=O)CSP(=S)(OC)OC,.,3.1,.,.,i,0.3,.
CCCCCCCCN=Cc1c(O)[nH]c(=O)[nH]c1=O,1.1,3.2,-5.6,0.657,i,1.4,3.3
O=C(c1cc(=O)[nH]c2ccc(Br)cc12)N1CCC2(CC1)OCCO2,4.4,13.8,.,0.672,.,2.7,0.6
COc1cc(C(O)CNC(C)C)cc(F)c1OC (stereo not given),1.7,0.9,0.5,0.663,i,1.2,5.0
CCN(CC)CCCOC(=O)C(OC)(c1ccccc1)c1ccccc1,2.9,2.2,-1.6,0.665,.,1.2,0.7
Cn1c(O)c(C2=NNC(c3ccc(Cl)cc3)C2)c(=O)n(C)c1=O (stereo not given),-1.3,0.6,11.6,0.709,i,-2.1,6.3
CCCNC(=O)N1[C@H]2CC[C@@H]1C(C(=O)OC)=C(c1ccc3ccccc3c1)C2,-1.3,-1.4,13.5,0.71,.,0.5,1.5
COc1cccc(C2(C#N)CCN(C)CC2)c1,-5.6,-5.2,-2.7,0.719,i,-0.3,0.8
COC(=O)C1=C(c2ccc(F)cc2F)C[C@@H]2CC[C@H]1N2C(=O)NCCOc1ccccc1Cl,2.2,2.5,-3.8,.,.,4.8,1.7
N#CC1=C(N)Oc2c(c(=O)oc3ccccc23)C1c1ccncc1 (stereo not given),0.2,-9.1,5.2,0.641,.,3.0,0.2
Cc1nn(Cc2ccccc2)c(C)c1C(=O)O,-1.7,-5.0,-4.7,0.683,i,3.3,2.6
Cc1oc(C(=O)Nc2ccc(O)cc2)cc1COc1ccccc1,0.3,2.0,66.1,0.683,.,-2.7,5.9
O=c1[nH]c(=O)n(-c2ccccc2)c(O)c1/C=C1/C(c2ccccc2)=Nc2ccccc21,1.8,19.7,-38.7,0.612,.,0.0,3.5
O=C1NC(=O)N(c2ccc(Cl)cc2)C(=O)/C1=C\c1ccc(Sc2nc3ccccc3[nH]2)o1,-0.2,1.8,47.7,0.726,i,21.0,7.6
COc1ccccc1C1=NCc2nnc(CSC)n2-c2ccc(Cl)cc21,-0.3,6.0,.,0.638,i,2.4,1.4
C=CCN1CC[C@]23c4c5ccc(O)c4OC2[C@H](O)CC[C@@]3(O)[C@H]1C5 (stereo not given in full),.,3.2,.,0.754,i,-0.6,-0.4
c1ccc(Nc2ccc(Nc3ccccc3)cc2)cc1,-1.4,-0.8,98.4*,0.689,i,2.0,-5.5
CCCCCCn1c(=O)c(C(=O)Nc2nnc(C)s2)c(O)c2ccccc21,-0.9,.,0.3,0.667,.,.,0.8
O=C1NC(=O)C2(Cc3ccccc3N3CCCC32)C(=O)N1c1ccccc1 (stereo not given),-4.5,-4.0,-7.2,0.736,.,-17.4,-11.5
CC12CC[C@H]3[C@@H](CCC4(O)C[C@H](O)CCC34/C=N/NC(=O)c3ccccc3Cl)C1(O)CCC2C1=CC(=O)OC1 (stereo not given in full),-3.6,-4.5,-5.4,.,i,-3.0,.
CN1CCN(Cc2ccc(Br)s2)CC1,2.2,-2.6,-0.3,0.667,.,1.9,3.9
Cc1ccc(/C=C2\C(=O)NC(=O)N(Cc3ccccc3Cl)C2=O)o1,3.3,59.2*,98.7*,0.709,i,-0.6,1.1
COc1cc(/C=N/NP(=S)(c2ccccc2)c2ccccc2)ccc1O,-3.0,-2.1,72.0,.,.,0.4,.
CN1CCN(c2ncc(C=O)s2)CC1,2.8,2.7,-5.1,0.714,i,-0.7,13.6
CC(C)OP(=O)(OC(C)C)C(O)c1ccccc1F (stereo not given),-5.2,2.7,0.6,.,.,-1.1,3.5
c1cc(CNCCc2ccc3c(c2)OCO3)ccn1,6.0,2.9,-36.6,0.697,i,-2.4,5.9
COc1ccc(NC2=NCCCS2)cc1OC,1.2,-2.4,.,0.653,i,-1.5,-0.2
Cc1cc(=O)oc2cc3c(cc12)CCCN3,3.2,4.0,93.4*,0.626,i,-1.7,i
O=c1[nH]c(CN2CCNCC2)nc2ccccc12,0.4,-7.8,17.2,0.71,.,-0.8,3.4

# These rows are one share of the data. The share of hits here may be higher or lower than overall.
